Source: PubChem BioAssay
MT1-MMP act inh = blocks activation of human MT1-MMP; AID 651647; HT1080 RFP-PRO-GFP cells, GFP/RFP ratio fluorescence, overnight; percent of plate control window, DMSO zero; P50281; GFP/RFP ratio change, % at 20 µM; 0.061% of 360,000 active;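 active = GFP/RFP ratio change of at least 30% with cell ATP level not reduced by more than half and red fluorescence within 50% of control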; also: strong numbers were not always called active
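Assay system: HT1080 cells carrying an RFP-PRO-GFP reporter | Dosing: Single dose of 20 µM compound, 1% DMSO final | Incubation: Cells overnight before dosing, compound overnight, 37 °C, 5% CO2 | Evaluation: GFP/RFP fluorescence ratio | Control set: DMSO and RFP-L50D-GFP cell wells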
Rce1 inhib = inhibitors of yeast Ras-converting enzyme; yeast membranes, quenched prenylated peptide cleavage fluorescence; calls only; 0.27% of 290,000 active; AID 2563;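 active = fall in fluorescence gain of 50% or more versus controls, with final raw signal at or below 3038400; inconclusive = same 50% fall but final raw signal above 3038400; inactive = fall in fluorescence gain under 50%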;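 also: plate controls were neutral control wells for no effect and wells lacking membranes for full effect; tested at 10 µM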
Target sequence (Q03530 whole entry, looked up): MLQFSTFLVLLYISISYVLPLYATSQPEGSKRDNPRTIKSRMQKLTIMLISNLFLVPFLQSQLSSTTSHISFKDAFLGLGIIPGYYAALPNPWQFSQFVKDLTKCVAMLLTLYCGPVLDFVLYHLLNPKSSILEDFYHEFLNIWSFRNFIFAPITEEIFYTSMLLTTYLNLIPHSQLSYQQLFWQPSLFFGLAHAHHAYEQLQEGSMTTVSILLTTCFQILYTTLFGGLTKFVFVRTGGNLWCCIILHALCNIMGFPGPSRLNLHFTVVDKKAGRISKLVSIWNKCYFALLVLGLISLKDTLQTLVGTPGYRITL
Env fusion inh = inhibitors of HIV Env-mediated cell fusion | HeLa-JRFL Env/CEM21 cell fusion, luciferase | 1.1% of 360,000 active | inhibition, % at 12.3 µM | AID 651610;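 active = mean replicate inhibition score of at least 50 and every replicate individually at or above 50; inconclusive = only one of the two criteria met; inactive = mean below 50 and not all replicates reaching 50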;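 also: 0% = plate neutral controls and 100% = maraviroc near 300 nM; one replicate is shown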
UUG fidelity = alters start codon recognition fidelity in yeast; activity score, % at 18.7 µM; S. cerevisiae UUG-firefly luciferase reporter, luminescence/redox ratio; 0.13% of 350,000 active;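 active = replicate mean at a twofold rise or more, about +100% in these data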;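 also: firefly luciferase made from a UUG start codon reports start codon fidelity; reporter light over untreated wells divided by growth signal over untreated wells; some hits fall short of that in this replicate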
CSC inhib = blocks cancer stem cells. cancer stem cell-like cells viability, luminescence. inhibition, % at 7.5 µM. 1.1% of 300,000 active;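 active = mean at 75% or more and at least half the replicates too; inconclusive = mean and replicates disagree; tested in HMLE shEcad cells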;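 also: 0% = median of negative and 100% = median of positive control wells; the first replicate is given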
PABP polyA inh = PABP-poly(A) binding inhibition; P11940; PABP-poly(A) RNA binding, fluorescence polarization; inhibition, % at 35 µM; 1% of 290,000 active; AID 2014;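 active = 50% or more with normal probe brightness, or confirmed in later tests; inconclusive = above 50% with abnormal brightness, or retests that disagree; inactive = below 50% or failed in later tests; about a fifth of its hits are not listed in these tables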;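 also: calls also rest on retests at 20 µM and on dose response follow-up; controls were probe without protein and protein plus probe with vehicle; some compounds called inactive have numbers as strong as hits; many hits fall short of the cut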
Target sequence (P11940 whole entry, looked up): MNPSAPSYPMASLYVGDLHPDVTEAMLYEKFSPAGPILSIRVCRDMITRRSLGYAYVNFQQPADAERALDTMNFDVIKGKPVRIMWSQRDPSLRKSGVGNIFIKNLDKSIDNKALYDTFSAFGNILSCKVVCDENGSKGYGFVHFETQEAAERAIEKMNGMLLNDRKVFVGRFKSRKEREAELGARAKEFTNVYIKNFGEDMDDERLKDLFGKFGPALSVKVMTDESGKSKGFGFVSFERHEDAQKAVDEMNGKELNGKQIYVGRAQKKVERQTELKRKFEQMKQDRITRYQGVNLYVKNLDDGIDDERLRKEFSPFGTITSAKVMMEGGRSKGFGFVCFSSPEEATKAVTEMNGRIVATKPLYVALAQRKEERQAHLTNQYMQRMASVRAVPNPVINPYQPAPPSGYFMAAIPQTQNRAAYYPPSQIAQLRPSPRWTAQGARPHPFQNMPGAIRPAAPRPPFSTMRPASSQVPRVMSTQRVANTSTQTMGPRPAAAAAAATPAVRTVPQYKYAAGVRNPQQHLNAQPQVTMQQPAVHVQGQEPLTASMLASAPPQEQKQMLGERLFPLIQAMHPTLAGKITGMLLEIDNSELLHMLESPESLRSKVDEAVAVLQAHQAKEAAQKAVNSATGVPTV
eIF4H inh = inhibitors of RNA binding by human eIF4H. Q15056. eIF4H fluorescence polarization binding assay. inhibition, % at 35 µM. 0.94% of 290,000 active. AID 2012;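 active = 50% or more with normal probe brightness, or confirmed in later tests; inconclusive = above 50% with abnormal brightness, or retests that disagree; inactive = below 50% or failed in later tests; about a fifth of its hits are not listed in these tables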;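 also: calls also rest on retests at 20 µM and on dose response follow-up; 0% = protein and probe with vehicle and 100% = probe without protein; strong numbers were not always called active; many hits fall short of the cut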
MT1-MMP act inh RFP = second read-out of MT1-MMP act inh, no call of its own (marks repeat the call); RFP signal change, %; measured here: RFP expression control read;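 0 = vehicle wells; hits needed this value within 50% of zero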
* hit, by the source's call; i = inactive; ? = inconclusive; . = no result given; & = joins results of further samples.

SMILES	MT1-MMP act inh	MT1-MMP act inh RFP	Rce1 inhib	Env fusion inh	UUG fidelity	CSC inhib	PABP polyA inh	eIF4H inh
CC(C)(C)[C@H]1C=C(C(=O)N2CCOCC2)O[C@@H](OCc2ccc(CO)cc2)C1	2	1	i	4	-5	1	-5	1
CCOC(=O)N1CCN(C(=O)COC(=O)c2ccccc2NCCO)CC1	-2	2	?	-21	.	-6	.	.
Cc1ccc(C2/C(=C(\O)c3ccc4c(c3)OCCO4)C(=O)C(=O)N2CC2CCCO2)cc1 (stereo unspecified)	0	3	i	12	-12	8	5	-23
CCCN(CCC)C(=O)Cn1c(=O)n(CCC(=O)NCCc2ccccc2)c(=O)c2ccccc21	6	3	i	-74	-21	-12	3	-1
Cc1ccc(CNC(=O)CSc2nc3c(sc4ccccc43)c(=O)n2CCCN2CCCC2)cc1	-3	-5	i	5	.	17	4	-12
Cc1ccc(OCc2cc(C(=O)N(C)Cc3cnn(C)c3)no2)cc1C	-1	-2	.	13	-7	.	.	.
Cc1ccc2cc(CN(CCO)Cc3nnnn3Cc3ccc(F)cc3)c(=O)[nH]c2c1	6	-1	i	.	-5	-8	-5	3
O=C(/C(=C/O)N=Nc1ccccc1)c1ccc(Cl)cc1	2	1	i	-16	.	71	-9	-14
COc1ccc(NC(=O)n2ncc3c(C)cccc32)cc1	2	-2	i	-243	-22	57	16	-11
CCO[C@@H]1OC(C(=O)N2CCOCC2)=C[C@H](c2cn(C(C)=O)c3ccccc23)[C@H]1CCCO	0	0	i	5	-15	-8	-2	2
CN(C)c1nc(NS(=O)(=O)c2ccc(Cl)cc2)nc(N(C)C)n1	.	.	i	-1	1	-10	-5	-10
CCOC(=O)c1ccc(NC(=O)c2sc3nc(N4CCOCC4)c4c(c3c2N)CCCC4)cc1	3	-1	i	-3	-11	-6	-1	-12
O=C(Cn1c(=O)n(CC2CCCO2)c(=O)c2ccccc21)c1ccc(Cl)c(Cl)c1 (stereo unspecified)	14	5	.	58*	-4	-3	-5	-3
Cc1ccc(NC(=O)N2CCN(c3ncccc3C(F)(F)F)CC2)cc1	3	2	.	18	.	2	1	-9
CN(c1ccc(C(=O)NCc2ccncc2)cc1)S(C)(=O)=O	2	-5	i	.	-20	-3	-1	-12

Compound profiles (already shown):
O=C(Cn1c(=O)n(CC2CCCO2)c(=O)c2ccccc21)c1ccc(Cl)c(Cl)c1 (stereo unspecified) is listed as MT1-MMP act inh = 14; MT1-MMP act inh RFP = 5; Rce1 inhib = .; Env fusion inh = 58*; UUG fidelity = -4; CSC inhib = -3; PABP polyA inh = -5; eIF4H inh = -3
CC(C)(C)[C@H]1C=C(C(=O)N2CCOCC2)O[C@@H](OCc2ccc(CO)cc2)C1 is listed as MT1-MMP act inh = 2; MT1-MMP act inh RFP = 1; Rce1 inhib = i; Env fusion inh = 4; UUG fidelity = -5; CSC inhib = 1; PABP polyA inh = -5; eIF4H inh = 1

New compounds follow:
SMILES	MT1-MMP act inh	MT1-MMP act inh RFP	Rce1 inhib	Env fusion inh	UUG fidelity	CSC inhib	PABP polyA inh	eIF4H inh
Cc1cc(SCC(=O)NCCCN2CCCC2=O)nc2ccccc12	-9	5	.	.	-18	11	.	.
Cn1cccc1C(=O)NS(=O)(=O)c1ccccc1Cl	1	3	i	-17	.	-29	6	0
Oc1ccc(-c2nc3ncccn3c2Nc2ccc3c(c2)OCCO3)cc1	3	-2	i	.	-23	2	-10	1
COC(=O)[C@@]1(Cc2ccc(OC)cc2)[C@H]2c3cc(C(=O)N(C)C)n(Cc4ccc(OC(F)(F)F)cc4)c3C[C@H]2CN1C(=O)c1ccccc1	.	.	i	.	.	35	-12	-8
O=C(CNc1ccc(F)cc1)N/N=C1\CCc2ccccc21	2	1	i	2	-15	0	6	-4
COc1cccc(-c2ccc3nnc(SCC(=O)N4CCOCC4)n3n2)c1	1	2	i	-13	-15	-5	.	.
Nc1nnc(SCC(=O)c2cccc([N+](=O)[O-])c2)s1	-2	0	i	12	.	13	8	4
COCC(C)n1c(C)cc(C(=O)CSc2nnc(Nc3ccccc3F)s2)c1C (stereo unspecified)	4	-5	i	.	-26	-5	-8	0
CC(=O)c1c(C(C)=O)c(C)n(-c2ccc3ncccc3c2)c1C	-9	-7	i	26	5	-9	-6	1
CNC(=O)NC(=O)COC(=O)c1cccc(S(=O)(=O)N2CC3(C)CC2CC(C)(C)C3)c1 (stereo unspecified)	1	-4	i	5	.	-14	.	.
O=CN1CCN(C(=O)Cc2ccc(Cl)cc2)CC1	-3	2	.	1	-17	.	.	.
O=C(COC(=O)C1CC1)Nc1ccc(OC(F)F)cc1	-1	-1	i	-31	-17	0	-9	5
O=C(C1CCC1)N1CCN(c2ccnc3cc(Cl)ccc23)CC1	-4	-9	i	20	.	-5	9	-8
O=C(Cn1nnc2ccccc2c1=O)NC1CCCc2ccccc21 (stereo unspecified)	-3	-3	i	-35	-5	-9	-11	3
C=CCN(c1ccccc1)S(=O)(=O)c1cccc(C(=O)O)c1	11	10	i	.	519*	9	14	-17
COc1ccc(OCC(=O)N/N=C/C=C/c2ccccc2)cc1	0	0	i	10	-16	-2	-2	-8
COc1ccc(S(=O)(=O)NCCc2ccco2)cc1OC	2	3	i	3	-21	-8	-3	-8
COc1ccccc1C(=O)NCC(=O)OCc1ccc(Br)cc1	-1	-3	i	11	.	.	-13	-5
O=C(NCC(c1cccs1)N1CCOCC1)c1ccco1 (stereo unspecified)	1	-1	i	-44	-18	-4	-1	7
O=C1C=C(c2ccc(OC(F)(F)F)cc2)C[C@@H](c2ccc(F)cc2)C1	-2	3	.	.	-20	3	.	.
Cc1cccc(N(Cc2nnc3n2CCCCC3)C(=O)Nc2ccccc2)c1	1	-1	i	-18	-25	11	-2	-9
COc1ccc2sc(-c3ccccc3OC)c(C#CCCO)c2c1	-2	-1	.	9	21	17	.	.
COc1ccc(NC(=O)Nc2ccncc2)c(OC)c1	6	5	i	2	-7	-5	3	-5
CN(C)c1ccc(CNC(=O)c2cc(S(=O)(=O)N3CCOCC3)cn2C)cc1	-1	1	i	-34	-9	-10	10	11
CN(C)c1ccc(/C=C/c2c([N+](=O)[O-])c(=O)n(C)c(=O)n2C)cc1	5	2	i	8	-11	.	-6	-6
CCCCC(=O)Nc1ncc(S(=O)(=O)c2ccc([N+](=O)[O-])cc2)s1	5	-10	i	17	-16	16	11	-2
COc1ccc(NC(=O)c2ccccc2NC(=O)COc2ccccc2)cc1	0	1	i	7	.	-16	6	-7
COc1ccc(NC(=O)c2ccccc2NC(=O)CSc2ccc(Cl)cc2)cc1	-1	0	i	.	-12	-6	-7	-13
Cc1ccc2c(COC(=O)c3ccc(C)c(C)c3)cc(=O)oc2c1	-3	2	i	19	-10	2	0	1
O=C(NCCc1ccc(F)cc1)c1ccc2c(=O)n3c(nc2c1)CCC3	.	.	i	-28	.	7	.	.
N#CCCOC1(C#CCN2CCCC2)CCCCC1	2	5	i	6	-45	-10	10	-8
COc1ccc(N2C(=O)CC(Nc3ccc(C(=O)O)cc3)C2=O)cc1OC (stereo unspecified)	0	4	i	-13	.	2	-15	0
CC1(C)O[C@@H](CC(=O)O)[C@]23CO[C@H](C(=O)[C@]4(C)C2CC[C@@]2(C)[C@H](c5ccoc5)OC(=O)C5O[C@]524)[C@@H]13 (stereo partly specified)	3	2	.	-23	-5	4	.	.
O=C(Nc1ccccc1Cl)C1CCCN(c2ncnc3c2nc2n3CCCCC2)C1 (stereo unspecified)	1	-13	i	8	-3	-4	-5	-4
CCc1ccc(OC2(C)CCN(Cc3ccccc3OC(F)F)C2)cc1 (stereo unspecified)	0	4	.	2	-19	.	.	.
Cc1ccc(C(=O)Oc2csc(=S)n2C(=O)c2ccc(C)cc2)cc1	5	4	i	-46	-11	-2	16	5
C[C@@H]1CN([C@H](C)CO)C(=O)CCCn2cc(nn2)CO[C@H]1CN(C)C(=O)Nc1cccc(C(F)(F)F)c1	0	2	.	?	7&8	.	.	.
O=C(Cc1ccc(S(=O)(=O)N2CCOCC2)s1)Oc1ccc(F)cc1	-7	3	i	-3	-7	-13	.	.
CC(C)c1ccc(NC(=O)C(c2ccccc2)N2CCC3(CC2)OCCO3)cc1 (stereo unspecified)	-3	-2	.	-53	-2	2	8	0
CCOC(=O)c1c(OCCO)nn(-c2ccc(Cl)cc2)c1N	-2	-2	i	-3	.	-4	-4	9
CCOc1ccc(CCNC(=O)COC(=O)c2cccs2)cc1OCC	3	1	i	-6	3	-15	2	-7
COc1ccc(-c2nc3ccc([N+](=O)[O-])cc3o2)cc1	-5	-2	i	-78	.	6	-14	-1
OCCC#Cc1c(-c2ccsc2)sc2ccccc12	-1	0	i	9	32	68	1	-3
Cc1ccc(NC(=O)N/C=C/c2ccccc2)cc1	-1	-2	i	.	-3	-12	-8	5
O=[N+]([O-])c1ccc(S(=O)(=O)NCC(c2cccnc2)N2CCc3ccccc3C2)cc1 (stereo unspecified)	1	-2	i	5	-5	-2	.	.
CCOC(=O)N1CCN(S(=O)(=O)N2CCCC(C(=O)NCc3ccc(OC)cc3OC)C2)CC1 (stereo unspecified)	4	5	i	-5	-9	-11	-8	1
CCOC(=O)C1CCN(C(=O)c2cc(S(=O)(=O)N3CCCCCC3)ccc2OC)CC1	4	6	i	3	.	16	.	.
COc1ccc(CNC(=O)CC(C)S(=O)(=O)c2ccc3c(c2)NC(=O)CO3)cc1 (stereo unspecified)	-3	-3	i	-14	-14	-10	-7	0
COc1ccc(N(CC(O)CN2C(=O)NC(C)(C)C2=O)S(=O)(=O)c2ccccc2)cc1 (stereo unspecified)	3	10	i	-89	-13	5	-6	-2
CCOc1ccc(N2C(=O)CC(N3CCN(c4ccc(F)cc4)CC3)C2=O)cc1 (stereo unspecified)	3	2	i	14	-22	0	-3	4
CC(C)(C)C(=O)/C(=C\c1ccc([N+](=O)[O-])cc1)n1cncn1	.	.	i	.	.	119*	2	-1
Cc1[nH][nH]c(=O)c1C=NCc1cccnc1	3	6	i	18	-14	-20	2	-5
COC(=O)c1ccccc1NC(=O)NC1CCN(Cc2ccccc2)CC1	-1	-2	i	-70	-14	2	0	8
CCC1CCCCN1Cc1ccc(OC)c(C)c1C (stereo unspecified)	7	4	i	.	-6	8	6	-4
Oc1ccc(/C=C/c2nc(-c3ccccc3O)n(-c3ccccc3)n2)cc1	1	-1	i	7	-16	?	-5	-2
CCCCc1ccc(NC(=O)COc2ccc(C(=O)Nc3ccccc3OCC)cc2)cc1	3	1	i	.	-14	-12	9	6
Cc1ccccc1OC1C(=O)N(CC2CCCO2)C1c1ccc2c(c1)OCO2 (stereo unspecified)	-1	-2	i	8	.	-5	5	-6
Cc1c(NC(=O)CSc2nc3ccc(Cl)cc3[nH]2)c(=O)n(-c2ccccc2)n1C	5	0	.	.	1	-7	-5	-1
COc1ccc(S(=O)(=O)N2CCOC2CNC(=O)C(=O)NCCCN2CCOCC2)cc1OC (stereo unspecified)	3	8	i	12	-10	2	0	-3
COCC(=O)N(Cc1cc2cccc(C)c2[nH]c1=O)c1ccccc1	2	2	i	-5	-4	-16	15	0

The listing continues.
SMILES	MT1-MMP act inh	MT1-MMP act inh RFP	Rce1 inhib	Env fusion inh	UUG fidelity	CSC inhib	PABP polyA inh	eIF4H inh
Cc1ccc(NC(=O)c2ccc(CSc3ccccn3)cc2)cc1	0	-8	i	.	-12	9	-1	-2
COc1cc(/C=C/C(=O)O)cc(S(=O)(=O)NC2CCCC2)c1OC	0	-1	i	-1	.	7	3	-5
Cc1ccc(C(=O)Nc2cccc(C(=O)O)c2)cc1S(=O)(=O)N1CCOCC1	0	1	i	.	-11	1	10	-4
Brc1ccc(-c2nnc(-c3ccccc3Br)o2)cc1	0	3	i	.	-13	-1	-4	2
CCOC(=O)c1cc(C)n(-c2c(C)n(C)n(-c3ccccc3)c2=O)c1C	0	5	i	.	2	-2	0	0
